# High-throughput results deposited in PubChem by Broad Institute.
# NOMO-1 viab: STK33 inhibitor candidate reducing NOMO-1 cell viability | hit rate 7.5% among 37,000 | inhibition, % (concentration not given with the values) | NOMO-1 AML viability, CellTiter-Glo luminescence, 72 h;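 active = most replicates above 80%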;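 note: wells of about 30 µL received 25 nL stock; 0% = median of vehicle wells and 100% = reference inhibitor level; the first replicate is given; inactives centre near 10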
# The depositor's hits bear a star. Not all compounds are listed; the hit share may differ from the screen's.
SMILES | NOMO-1 viab
COc1cccc(C2C(C(=O)c3cc4ccccc4o3)C(=O)C(=O)N2c2nc(C)c(C)s2)c1OC (centres undefined) | 11
C[C@@H]1CN([C@H](C)CO)C(=O)c2cccc(NC(=O)Nc3ccc(F)cc3)c2O[C@@H]1CN(C)Cc1ccncc1 | 3
CCOC(=O)c1c(NC(=O)CN2C(=O)c3ccccc3S2(=O)=O)sc2c1CCCC2 | -4
C[C@H](CO)N1C[C@H](C)[C@H](CN(C)C(=O)Nc2ccc(C(F)(F)F)cc2)Oc2ccc(NC(=O)Nc3ccc4c(c3)OCO4)cc2CC1=O | 38
Brc1ccc2nc(NCc3ccccn3)nc(-c3ccccc3)c2c1 | 20
COc1ccc(C(=O)NCCNc2ccccc2[N+](=O)[O-])cc1 | 22
COc1cccc2ccc(Cl)nc12 | -4
C[C@H](CO)N1C[C@H](C)[C@H](CN(C)Cc2ccc(Oc3ccccc3)cc2)Oc2ccc(NS(=O)(=O)c3cccs3)cc2CC1=O | 32
C[C@@H]1CN([C@@H](C)CO)C(=O)c2cccc(NC(=O)C3CC3)c2O[C@H]1CN(C)C(=O)Nc1cccc2ccccc12 | 3
CCCCCCCCCC(O)C(C)C(O)C(/C=C(\C)C1=CC(=O)C(C)CO1)CO (centres undefined) | 35
Cc1noc(C)c1NC(=O)N(C)C[C@@H]1Oc2c(NS(=O)(=O)c3ccc(Cl)cc3)cccc2C(=O)N([C@H](C)CO)C[C@@H]1C | 11
COc1ccc(S(=O)(=O)Nc2ccc3c(c2)CC(=O)N([C@H](C)CO)C[C@@H](C)[C@H](CN(C)C(=O)NC2CCCCC2)O3)cc1 | 9
O=C(CN1C(=O)c2ccccc2S1(=O)=O)NCC1CCCO1 (centres undefined) | 1
Clc1ccc(-c2nnc(SCc3ccon3)o2)c(Cl)c1 | 20
C[C@H](CO)N1C[C@H](C)[C@@H](CN(C)C(=O)NC2CCCCC2)Oc2ccc(NC(=O)CCCN(C)C)cc2C1=O | 6
Cc1cc(C(=O)Nc2cccc3c2O[C@@H](CN(C)Cc2ccncc2)[C@H](C)CN([C@@H](C)CO)C3=O)n(C)n1 | 6
COc1ccc(S(=O)(=O)Nc2ccc3c(c2)CC(=O)N([C@@H](C)CO)C[C@H](C)[C@@H](CN(C)C(=O)Nc2cccc4ccccc24)O3)cc1 | 3
COc1ccc(S(=O)(=O)N(C)C[C@H]2Oc3c(NS(=O)(=O)c4cccs4)cccc3C(=O)N([C@H](C)CO)C[C@@H]2C)cc1 | -7
COc1ccc(S(=O)(=O)Nc2cccc3c2O[C@H](CN(C)Cc2ccc(-c4ccccc4)cc2)[C@@H](C)CN([C@H](C)CO)C3=O)cc1 | 61
Fc1ccccc1-c1nnc(SCc2nc3ccccc3[nH]2)n1-c1ccccc1 | 25
COc1c(O)cc2c(c1O)C(=O)OC(C)C(O)c1c(O)c(O)c(OC)c(O)c1C(=O)OC(C)C2O (centres undefined) | 20
COc1ccc(NC(=O)CSc2nnc(C)n2-c2ccc(C)c(C)c2)cc1 | 15
COC(=O)c1ccccc1NC(=O)CSc1nnc(-c2cc3cccc(OC)c3o2)n1C | 28
C[C@H](CO)N1C[C@H](C)[C@@H](CN(C)S(=O)(=O)c2ccc(Cl)cc2)Oc2ccc(NC(=O)Nc3ccccc3)cc2C1=O | 1
C[C@@H]1CN([C@@H](C)CO)C(=O)c2cccc(NC(=O)Nc3ccc(C(F)(F)F)cc3)c2O[C@@H]1CN(C)Cc1ccccc1 | 89*
COC(=O)c1cc(NC(=O)COc2c(C)cc(Cl)cc2Cl)cc(C(=O)OC)c1 | 15
C[C@@H]1CN([C@H](C)CO)C(=O)c2cc(NS(=O)(=O)c3ccc(F)cc3)ccc2O[C@@H]1CN(C)S(=O)(=O)c1cccs1 | 22
C[C@H]1CN([C@@H](C)CO)C(=O)c2cc(NS(=O)(=O)c3ccc(Cl)cc3)ccc2O[C@@H]1CN(C)S(=O)(=O)c1cccs1 | 20
C[C@H](CO)N1C[C@H](C)[C@@H](CN(C)S(=O)(=O)c2cn(C)cn2)Oc2c(NC(=O)Nc3ccc4c(c3)OCO4)cccc2C1=O | 12
Cc1cc(Br)ccc1NC(=O)Cn1ccc([N+](=O)[O-])n1 | 23
C[C@@H]1CN([C@H](C)CO)C(=O)c2cccc(NS(C)(=O)=O)c2O[C@H]1CN(C)Cc1ccccc1 | 25
C[C@@H]1CN([C@@H](C)CO)C(=O)c2cc(NS(=O)(=O)c3cn(C)cn3)ccc2O[C@H]1CN(C)CC1CC1 | -11
COc1ccc(CN(C)C[C@@H]2Oc3ccc(NS(=O)(=O)c4ccc(Cl)cc4)cc3CC(=O)N([C@H](C)CO)C[C@@H]2C)cc1 | 42
CN1c2ccccc2C(=O)/C(=C\Nc2ncccn2)S1(=O)=O | 3
C[C@H]1CN([C@@H](C)CO)C(=O)c2cccc(NC(=O)c3cnccn3)c2O[C@@H]1CN(C)Cc1ccc(Cl)c(Cl)c1 | 13
O=[N+]([O-])c1ccc(CSc2nnc(-c3cnccn3)n2-c2ccccc2)cc1 | 9
COc1ccc(NC(=O)CN2CCC(C(N)=O)(N3CCCCC3)CC2)c(OC)c1 | 0
COc1cccc(C2C(C(=O)c3cccs3)C(=O)C(=O)N2CCN2CCOCC2)c1 (centres undefined) | 7
C[C@@H]1CCCCO[C@H](CN(C)C(=O)c2ccccc2)[C@@H](C)CN([C@H](C)CO)C(=O)c2cc(NC(=O)c3ccncc3)ccc2O1 | -5
CC(C)Cn1c(SCC(=O)Nc2ccc(F)cc2F)nc2ccccc2c1=O | 26
CCCC(=O)Nc1nc2c(ncn2C2O[C@H]3COP(=O)(O)O[C@@H]3[C@@H]2OC(=O)CCC)c(=O)[nH]1 (some centres undefined) | 5
COc1ccc(CN(C)C[C@@H]2Oc3ccc(NC(=O)CCN4CCOCC4)cc3C(=O)N([C@@H](C)CO)C[C@H]2C)cc1 | 9
Cc1c(C)c(C)c(C(=O)c2ccccc2C(=O)NN)c(C)c1C | -18
CC(C)NC(=O)N(C)C[C@@H]1Oc2c(NC(=O)c3ccc(-c4nccs4)cc3)cccc2C(=O)N([C@@H](C)CO)C[C@@H]1C | 8
C[C@H]1CN([C@@H](C)CO)C(=O)c2cccc(NC(=O)Nc3ccc(F)cc3)c2O[C@@H]1CN(C)CC1CC1 | 20
Cc1ccc(N(CC(N)=O)S(C)(=O)=O)c(C)c1 | 18
C[C@@H]1CN([C@H](C)CO)C(=O)Cc2cc(NC(=O)C3CC3)ccc2O[C@@H]1CN(C)C(=O)Nc1ccccc1 | 11
COc1ccc(NC(=O)Nc2cccc3c2O[C@H](CN(C)S(=O)(=O)c2ccc(C)cc2)[C@@H](C)CN([C@H](C)CO)C3=O)cc1 | 23
Cc1cc(C(=O)Nc2cccc3c2O[C@@H](CN(C)Cc2ccncc2)[C@H](C)CN([C@H](C)CO)C3=O)n(C)n1 | -10
CC1CCCC[C@H]2C(=O)C=C[C@H](O)[C@@H]2CC(=O)O1 (some centres undefined) | 108*
O=C(CN1C(=O)c2ccc([N+](=O)[O-])cc2C1=O)Nc1ccccc1-c1ccccc1 | 11
Cc1noc(C)c1S(=O)(=O)N(C)C[C@H]1Oc2c(NS(=O)(=O)c3cn(C)cn3)cccc2C(=O)N([C@H](C)CO)C[C@@H]1C | 10
COc1ccccc1N(CC(=O)Nc1ccc(I)cc1C)S(C)(=O)=O | 32
Cn1c(O)c(C=Nc2cccc(Cl)c2)c2ccccc21 | 35
Cc1ccc(S(=O)(=O)N(C)C[C@H]2Oc3c(NC(=O)Nc4ccc5c(c4)OCO5)cccc3C(=O)N([C@H](C)CO)C[C@H]2C)cc1 | 13
C[C@@H]1CN([C@H](C)CO)C(=O)Cc2cc(NC(=O)c3ccncc3)ccc2O[C@@H]1CN(C)S(C)(=O)=O | -7
N#CCCN(Cc1ccco1)C(=S)Nc1ccccc1 | -1
COc1ccc(S(=O)(=O)N(C)C[C@H]2Oc3ccc(NS(=O)(=O)c4ccc(C)cc4)cc3CC(=O)N([C@H](C)CO)C[C@H]2C)cc1 | 12
Cc1cc(Cl)c(S(=O)(=O)Nc2ccc(I)cc2)cc1OCC(N)=O | 2
COc1ccc(S(=O)(=O)N(C)C[C@H]2Oc3c(NC(=O)Nc4cccc5ccccc45)cccc3C(=O)N([C@@H](C)CO)C[C@@H]2C)cc1 | -4

# Shown with each value named: part of the list above.
> C[C@@H]1CN([C@H](C)CO)C(=O)Cc2cc(NC(=O)c3ccncc3)ccc2O[C@@H]1CN(C)S(C)(=O)=O
  NOMO-1 viab: -7
> N#CCCN(Cc1ccco1)C(=S)Nc1ccccc1
  NOMO-1 viab: -1

# (cont.)
SMILES | NOMO-1 viab
Cc1noc(C)c1NC(=O)Nc1ccc2c(c1)CC(=O)N([C@@H](C)CO)C[C@H](C)[C@H](CN(C)Cc1ccc(C(=O)O)cc1)O2 | -10
CNC[C@H]1Oc2ccc(N)cc2C(=O)N([C@H](C)CO)C[C@@H]1C | 11
Cc1ccc(S(=O)(=O)Nc2cccc3c2O[C@H](CN(C)Cc2ccc(Cl)c(Cl)c2)[C@@H](C)CN([C@H](C)CO)C3=O)cc1 | 28
c1ccc(CCn2c3ccccc3c3nnc(SCc4ccc5nonc5c4)nc32)cc1 | 72
O=C(NCCCN1CCCC1=O)c1cc(-c2ccncc2)nc2ccc(Br)cc12 | 16
CC(C)NC(=O)Nc1cccc2c1O[C@@H](CN(C)Cc1ccc(Cl)c(Cl)c1)[C@@H](C)CN([C@H](C)CO)C2=O | 41
C[C@@H]1CCCCO[C@@H](CN(C)S(C)(=O)=O)[C@@H](C)CN([C@H](C)CO)C(=O)c2cc(NC(=O)Nc3cccc4ccccc34)ccc2O1 | -14
CNC[C@@H]1Oc2ccc(NS(=O)(=O)c3ccc(C)cc3)cc2C(=O)N([C@H](C)CO)C[C@H]1C | -4
C[C@@H]1CN([C@@H](C)CO)C(=O)c2cc(NC(=O)Nc3cccc4ccccc34)ccc2O[C@@H]1CN(C)C(=O)Nc1ccc(F)cc1 | -8
COc1ccc(NC(=O)C(C)N(c2ccc(C)c(C)c2)S(C)(=O)=O)cc1 (centres undefined) | 21
CCNC(=O)Oc1ccccc1 | -16
Cc1ccc(S(=O)(=O)N(C)C[C@H]2Oc3c(NC(=O)Nc4ccc(F)cc4)cccc3C(=O)N([C@@H](C)CO)C[C@@H]2C)cc1 | 35
C[C@H](CO)N1C[C@H](C)[C@@H](CN(C)C(=O)Nc2ccc(F)cc2)Oc2ccc(NC(=O)Cc3cn(C)c4ccccc34)cc2C1=O | 36
NC(=O)c1c(NC(=O)C(Cc2ccccc2)N2C(=O)c3ccccc3C2=O)sc2c1CCCC2 (centres undefined) | 18
C[C@@H]1CN([C@H](C)CO)C(=O)c2cccc(NC(=O)Nc3ccc(C(F)(F)F)cc3)c2O[C@@H]1CN(C)C(=O)Nc1ccc2c(c1)OCO2 | 112*
COc1ccc(NC(=O)N(C)C[C@@H]2Oc3c(NS(=O)(=O)c4ccccc4)cccc3C(=O)N([C@H](C)CO)C[C@@H]2C)cc1 | 5
CCOC(=O)c1ccc(CNC(=O)c2n[nH]c(=O)c3ccccc23)o1 | 53
COc1ccc(CN(C)C[C@@H]2Oc3ccc(NC(=O)CCN4CCOCC4)cc3C(=O)N([C@H](C)CO)C[C@@H]2C)cc1 | -26
O=C(COc1ccc(I)cc1)NCc1ccco1 | 11
C[C@@H]1CCCCO[C@@H](CN(C)S(=O)(=O)c2cn(C)cn2)[C@@H](C)CN([C@H](C)CO)C(=O)c2cc(NC(=O)Cc3ccccc3)ccc2O1 | 17
COc1ccc(NC(=O)Nc2ccc3c(c2)C(=O)N([C@@H](C)CO)C[C@@H](C)[C@H](CN(C)S(=O)(=O)c2cccs2)O3)cc1 | -26
Cc1ccc(S(=O)(=O)N(C)C[C@@H]2OCCCC[C@@H](C)Oc3ccc(N(C)C)cc3C(=O)N([C@H](C)CO)C[C@@H]2C)cc1 | -3
CC(C)NC(=O)N(C)C[C@@H]1OCCCC[C@@H](C)Oc2ccc(NC(=O)Nc3ccc(C(F)(F)F)cc3)cc2C(=O)N([C@H](C)CO)C[C@@H]1C | 40
COc1cc2c(c(OC)c1OC)-c1cc3c(cc1C[C@H]1C(=O)OC[C@@H]1C2)OCO3 | 106*

# Arranged by molar mass (ascending): some entries from above.
SMILES | NOMO-1 viab
CCNC(=O)Oc1ccccc1 | -16
CCOC(=O)c1ccc(CNC(=O)c2n[nH]c(=O)c3ccccc23)o1 | 53
O=C(COc1ccc(I)cc1)NCc1ccco1 | 11
COc1cc2c(c(OC)c1OC)-c1cc3c(cc1C[C@H]1C(=O)OC[C@@H]1C2)OCO3 | 106*
NC(=O)c1c(NC(=O)C(Cc2ccccc2)N2C(=O)c3ccccc3C2=O)sc2c1CCCC2 (centres undefined) | 18
Cc1ccc(S(=O)(=O)N(C)C[C@@H]2OCCCC[C@@H](C)Oc3ccc(N(C)C)cc3C(=O)N([C@H](C)CO)C[C@@H]2C)cc1 | -3
Cc1ccc(S(=O)(=O)N(C)C[C@H]2Oc3c(NC(=O)Nc4ccc(F)cc4)cccc3C(=O)N([C@@H](C)CO)C[C@@H]2C)cc1 | 35
COc1ccc(NC(=O)Nc2ccc3c(c2)C(=O)N([C@@H](C)CO)C[C@@H](C)[C@H](CN(C)S(=O)(=O)c2cccs2)O3)cc1 | -26
C[C@@H]1CN([C@H](C)CO)C(=O)c2cccc(NC(=O)Nc3ccc(C(F)(F)F)cc3)c2O[C@@H]1CN(C)C(=O)Nc1ccc2c(c1)OCO2 | 112*
C[C@@H]1CCCCO[C@@H](CN(C)S(=O)(=O)c2cn(C)cn2)[C@@H](C)CN([C@H](C)CO)C(=O)c2cc(NC(=O)Cc3ccccc3)ccc2O1 | 17
CC(C)NC(=O)N(C)C[C@@H]1OCCCC[C@@H](C)Oc2ccc(NC(=O)Nc3ccc(C(F)(F)F)cc3)cc2C(=O)N([C@H](C)CO)C[C@@H]1C | 40

# More compounds:
SMILES | NOMO-1 viab
Cc1c(N(CC(=O)O)S(=O)(=O)c2ccccc2)c(=O)n(-c2ccccc2)n1C | 23
Cc1nn(C(C)C(=O)NCc2ccco2)c(C)c1[N+](=O)[O-] (centres undefined) | -8
O=c1[nH]c2cc(Cl)ccc2c(O)c1-c1cccc(Oc2ccccc2)c1 | -4
C[C@@H]1CN([C@H](C)CO)C(=O)c2cccc(NS(=O)(=O)c3ccc(F)cc3)c2O[C@H]1CN(C)S(=O)(=O)c1ccc(F)cc1 | -12
O=C(O)CCc1ccc(F)cc1 | -17
